RecA intein inh: blocks M. tuberculosis RecA intein splicing. P9WHJ3. cell-free RecA intein splicing, fluorescence. inhibition, %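 (about 9 µM by stock and volumes)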. 0.75% of 290,000 active; in the data active = inhibition above about 30%;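 also: 0% = vehicle wells and 100% = reference inhibitor control wells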
Target sequence (P9WHJ3 whole entry, looked up): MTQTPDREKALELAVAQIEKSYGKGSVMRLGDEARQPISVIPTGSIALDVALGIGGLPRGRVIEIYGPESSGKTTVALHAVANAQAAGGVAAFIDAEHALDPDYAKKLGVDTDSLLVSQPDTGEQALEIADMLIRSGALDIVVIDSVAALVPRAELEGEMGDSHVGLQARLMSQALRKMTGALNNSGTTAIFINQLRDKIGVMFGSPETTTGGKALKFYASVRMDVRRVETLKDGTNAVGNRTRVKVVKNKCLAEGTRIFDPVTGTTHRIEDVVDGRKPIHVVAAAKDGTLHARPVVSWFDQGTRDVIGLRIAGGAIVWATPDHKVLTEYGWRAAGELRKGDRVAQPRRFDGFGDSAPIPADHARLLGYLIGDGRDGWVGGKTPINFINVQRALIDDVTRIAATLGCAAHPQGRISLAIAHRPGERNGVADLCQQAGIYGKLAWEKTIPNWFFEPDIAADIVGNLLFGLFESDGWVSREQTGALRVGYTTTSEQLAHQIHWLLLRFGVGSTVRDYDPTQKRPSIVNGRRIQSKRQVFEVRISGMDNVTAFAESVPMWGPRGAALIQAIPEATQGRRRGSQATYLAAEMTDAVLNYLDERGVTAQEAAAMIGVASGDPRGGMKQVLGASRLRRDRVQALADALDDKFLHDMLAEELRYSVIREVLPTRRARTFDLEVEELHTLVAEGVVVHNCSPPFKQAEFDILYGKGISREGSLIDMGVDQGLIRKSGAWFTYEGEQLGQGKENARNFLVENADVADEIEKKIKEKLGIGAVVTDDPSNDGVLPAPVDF
Mtb bLac sens: beta-lactam sensitization of Mtb H37Rv | M. tuberculosis H37Rv growth with meropenem, percent inhibition; hits of this screen are not shown here | inhibition, % at 25 µM | 0.27% of 330,000 active;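 active = about 74% or more and at least 40 points above the plate without the antibiotic, then above 30% in a dose series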;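 also: growth measured after seven days incubation then overnight dye step; 0% = bacteria only wells and 100% = bacteria with antibiotic; twin plates without the antibiotic show which effects depend on it; some results filed as inactive read as strong as hits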
Arbovirus inh: antivirals against arbovirus infection | 0.37% of 200,000 active | inhibition, % at 10 µM | arbovirus infection cell-based antiviral screen;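 active = inhibition from about 30%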;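 also: bluetongue infection of BSR cells; cell survival read as ATP light after 72 h; 0% = infected wells without compound and 100% = uninfected wells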
YopH inh: YopH (Yersinia) phosphatase inhibition; 0.16% of 140,000 active; inhibition, %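 (about 10 µM by stock and volumes)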; fluorescence Ex485/Em525;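 active = inhibition of 50% or more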;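 also: controls were vehicle for no effect and minimum signal wells for full effect; inactives centre near -20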
Mtb H37Rv: M. tuberculosis H37Rv growth inhibitors, H37Rv strain (AID 1626); 0.95% of 220,000 active; M. tuberculosis H37Rv growth inhibition; higher % means a stronger effect; one-dose inhibition, % at 10 µM; IC50 in µM for titrated hits;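 active = confirmed in a dose series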;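 also: bacteria incubated seven days before Alamar blue readout; 0% = bacteria only wells and 100% = bacteria with antibiotic wells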
Arbovirus inh repeat: recorded beside Arbovirus inh, whose call it bears; inhibition, %; measured here: 10K subset replicate screen; many hits read low in the repeat;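 first of two repeat runs on a subset; 0% = infected and 100% = uninfected wells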
The depositor's hits bear a star; x = not tested or not shown. Some of the compounds tested (hit frequency here may not be typical).

SMILES	RecA intein inh	Mtb bLac sens	Arbovirus inh	YopH inh	Mtb H37Rv	others
CN(C)c1ccc(-c2nc3ccccn3c2/N=C/c2ccc(Br)cc2)cc1	-182	14	-28	-12	3%
COCCn1c(C)cc(C(=O)CSc2nc3nc(C)cc(C)n3n2)c1C	0.1	7	6	-32	-4%
COc1ccc(/C=C2\SC(=O)N(CC(=O)NN3CCN(C)CC3)C2=O)cc1OC	-2.1	-13	x	x	-4%
COC(=O)/C=C/c1ccsc1NC(C)=O	0.3	-3	2	-24	0%
CCC(C)NC(=O)CO/N=C/c1ccc(C(=O)OC)cc1 (stereo unspecified)	0.6	-11	1	-18	-3%
Cc1cc(Cl)ccc1OC(C)C(=O)N1CCCN(C(=O)C(C)Oc2ccc(Cl)cc2C)CC1 (stereo unspecified)	12	-4	-34	-8	17%
c1ccc2c(N3CCCC3)nc(-c3ccncc3)nc2c1	0.1	74	-29	-43	6%
OCCNC(=S)Nc1ccc(Cl)c(Cl)c1	-1.2	2	5	3	-2%
O=C(/C=C/c1ccc2ccccc2n1)c1cc(Cl)ccc1O	8.6	2	x	x	60%
O=S(=O)(NCc1ccccc1Br)c1cccs1	2.1	-4	-1	-18	15%
OC(CN1CC=C(c2ccccc2)CC1)c1ccccc1 (stereo unspecified)	-0.1	-8	x	x	x
COCCNCc1ccc(C(C)C)cc1	-3.7	-4	1	x	2%
C=CCN1C(=O)NC(c2ccccc2)(C(F)(F)F)S/C1=C(\C#N)c1nnc(N2CCOCC2)n1-c1ccccc1 (stereo unspecified)	x	7	18	-32	8%
Cc1ccc(OS(=O)(=O)c2ccc(-c3csc(C)n3)s2)c(C)c1	-4.8	25	x	x	10%
COC(=O)c1ccc(CN2CCc3ccccc32)cc1	0.6	5	x	x	x
CCN(C(=O)C1CCN(S(=O)(=O)c2cccc3nonc23)CC1)c1ccccc1	-1.2	2	0	-22	0%
CSc1nc(N2CCOCC2)c2c3c(sc2n1)CCCC3	-7.2	-2	8	-20	7%
Cc1ccc(N(Cc2cc3ccccc3[nH]c2=O)S(=O)(=O)c2ccccc2)cc1	-2.6	-8	-7	-18	16%
COc1ccc(CC(=O)O/N=C(\N)Cc2cccc3ccccc23)cc1OC	32*	3	5	-22	-8%
O=C(NC(N1CCOCC1)C(Cl)(Cl)Cl)c1ccc(Br)cc1 (stereo unspecified)	1.5	-5	-3	x	-1%
CC(=O)c1cccc(Nc2cc(C)nc3c(C)cc(C)cc23)c1	-1.2	5	-22	-24	3%
CN(C)CCCNc1cc(C(C)(C)C)nc2c(-c3ccc(Cl)cc3)cnn12	16	100	x	x	0.87µM*
CCOC(=O)N1CCN(C(=O)c2ccc(N(Cc3ccc(C)cc3)S(C)(=O)=O)cc2)CC1	-0.9	4	8	-9	-4%
O=C(Cc1ccccc1)Nc1ccc(C(=O)O)cc1	-5.3	-4	2	-15	-1%
CN(C)c1cccc(C(=O)Nc2ccc3nc4n(c(=O)c3c2)CCCCC4)c1	-2.0	-2	-25	-43	7%
Cc1cc(O)ccc1N/C=C/c1onc(C)c1[N+](=O)[O-]	-0.5	3	13	x	-1%
CC(C)(Oc1ccc(Cl)cc1)C(=O)OCC(=O)NCCc1ccccc1	4.5	-13	x	x	x
COc1ccc(C2=CC(=O)OC(C)(c3ccccc3)O2)cc1 (stereo unspecified)	8.9	-1	-16	-19	-1%
CCOc1cc(C2NCc3ccccc3-n3cccc32)ccc1O (stereo unspecified)	1.2	-8	7	-30	x
C/C(CC(=O)Nc1cccc2c1CCCC2)=N\NC(=O)c1ccccc1N	-0.2	22	4	-29	-15%

2 entries picked at random from those above, as already listed:
SMILES	RecA intein inh	Mtb bLac sens	Arbovirus inh	YopH inh	Mtb H37Rv	others
Cc1cc(O)ccc1N/C=C/c1onc(C)c1[N+](=O)[O-]	-0.5	3	13	x	-1%
CC(=O)c1cccc(Nc2cc(C)nc3c(C)cc(C)cc23)c1	-1.2	5	-22	-24	3%

Additional entries follow:
SMILES	RecA intein inh	Mtb bLac sens	Arbovirus inh	YopH inh	Mtb H37Rv	others
Nc1nnnn1/N=C/c1cccc(Oc2ccccc2)c1	0.9	5	-5	-4	-1%
COC(=O)c1ccc(OS(=O)(=O)N(C)C)cc1	-0.4	6	2	x	-9%
CCOC(=O)CN1C(=O)NC(C)(c2ccc(OC(F)F)cc2)C1=O (stereo unspecified)	-0.7	-1	2	-40	1%
CC1(C)C2CCC1(CS(=O)(=O)Nc1ccccc1)C(=O)C2 (stereo unspecified)	-1.3	-12	5	x	-9%
CS(=O)(=O)N1CCCC(C(=O)NCc2ccccn2)C1 (stereo unspecified)	-0.5	-10	4	-40	0%
COCCn1cnnc1SCC(=O)Nc1ccccc1C(=O)Nc1ccc2c(c1)OCO2	0.9	-3	4	-4	-10%
CCC(=NC(C)c1ccccc1)c1c(O)n(C)c(=O)n(C)c1=O (stereo unspecified)	2.5	2	-2	3	0%
CNc1nc(N)c(C(=O)C23CC4CC(CC(C4)C2)C3)s1	-3.2	-1	5	x	8%
COc1cc(/C=C(\C#N)C(=O)NCCc2ccccc2)cc(OC)c1O	16	-2	-4	x	2%
Cc1cccc(NC(=O)C(=O)NCC2CCCN2S(=O)(=O)c2ccccc2)c1 (stereo unspecified)	1.8	-7	x	x	x
CCOC(=O)c1cnc(SC)nc1Oc1cccc(NS(=O)(=O)c2ccc(F)cc2)c1	1.7	-1	-1	-16	-1%
O=c1nc2n(c3ccc(Br)cc13)CCS2	1.8	12	-5	-10	-1%
CCCCC(=O)OCC(=O)c1cc(C)n(-c2c(C)n(C)n(-c3ccccc3)c2=O)c1C	-0.6	-2	21	x	-2%
CC1(C)CN=C(Nc2ccc(F)c(F)c2)S1	0.5	1	3	-45	11%	Arbovirus inh repeat=4
COc1ccc(Cl)cc1NC(=O)Cn1nnc(C(=O)NCc2ccc3c(c2)OCO3)c1N	-2.2	11	x	x	x
COc1ccc(NC(=O)CC2Nc3cccc4cccc(c34)NC2=O)cc1 (stereo unspecified)	-2.6	-3	11	x	3%
COc1ccc(NC(=O)[C@@]2(CC(=O)O)CC(/C=C/c3ccccc3)=NO2)cc1	-2.0	4	x	x	x
COc1ccc(NC(=O)CCC(=O)c2cccs2)c(OC)c1	-2.2	-5	x	x	x
COc1ccc(-c2cccc(NS(=O)(=O)c3ccc([N+](=O)[O-])cc3)c2)nn1	1.4	0	x	x	x
COCCNC(=O)c1ccc(Cn2c(=S)[nH]c3cc4c(cc3c2=O)OCO4)cc1	-3.8	4	1	-3	-7%

Among those listed so far, two contain an NH in an aromatic ring:
SMILES	RecA intein inh	Mtb bLac sens	Arbovirus inh	YopH inh	Mtb H37Rv	others
Cc1ccc(N(Cc2cc3ccccc3[nH]c2=O)S(=O)(=O)c2ccccc2)cc1	-2.6	-8	-7	-18	16%
COCCNC(=O)c1ccc(Cn2c(=S)[nH]c3cc4c(cc3c2=O)OCO4)cc1	-3.8	4	1	-3	-7%

Remaining list, next part
SMILES	RecA intein inh	Mtb bLac sens	Arbovirus inh	YopH inh	Mtb H37Rv	others
CCc1ccc(NC(=O)Cn2ncn3c(cc4ccccc43)c2=O)cc1	2.2	4	x	x	x
C=CCn1c(C)cc(C(=O)CSc2nnc(Cc3ccccc3)o2)c1C	0.5	-3	1	-29	-4%
COCCCNC(=S)N(CCO)Cc1cc2cc3c(cc2[nH]c1=O)OCO3	-0.4	53	x	x	x
COc1ccc(-c2cccc(C3CC=CC4C3C(=O)N(Cc3ccccc3)C4c3ccc4ccccc4c3)c2)cc1 (stereo unspecified)	1.3	-2	x	x	4%
Cc1nnc(SCC(=O)NNC(=O)COc2ccc(Cl)cc2)n1C	-0.8	2	x	x	x
CCN1CCN(c2ccc(S(=O)(=O)N3CCCCC3)cc2NC(=O)c2ccc([N+](=O)[O-])o2)CC1	-5.1	99	x	x	x
CCN1CCN(c2nc3ccccc3nc2C(C#N)C(=O)OC2CCCCC2)CC1 (stereo unspecified)	x	x	-1	-47	12%
CC1(c2ccc3c(c2)OCO3)NC(=O)N(CC(=O)Nc2ccc(N3CCOCC3)cc2)C1=O (stereo unspecified)	-3.8	0	28	-41	-2%
Cc1nnsc1C(=O)N1CCCC(Nc2ccc(C(C)C)cc2)C1 (stereo unspecified)	1.0	4	x	x	x
CC(C)Cn1c(/C=C/c2ccco2)nc2ccccc21	0.5	6	5	-1	0%

Continued (6 carried over from the part before).
SMILES	RecA intein inh	Mtb bLac sens	Arbovirus inh	YopH inh	Mtb H37Rv	others
Cc1nnc(SCC(=O)NNC(=O)COc2ccc(Cl)cc2)n1C	-0.8	2	x	x	x
CCN1CCN(c2ccc(S(=O)(=O)N3CCCCC3)cc2NC(=O)c2ccc([N+](=O)[O-])o2)CC1	-5.1	99	x	x	x
CCN1CCN(c2nc3ccccc3nc2C(C#N)C(=O)OC2CCCCC2)CC1 (stereo unspecified)	x	x	-1	-47	12%
CC1(c2ccc3c(c2)OCO3)NC(=O)N(CC(=O)Nc2ccc(N3CCOCC3)cc2)C1=O (stereo unspecified)	-3.8	0	28	-41	-2%
Cc1nnsc1C(=O)N1CCCC(Nc2ccc(C(C)C)cc2)C1 (stereo unspecified)	1.0	4	x	x	x
CC(C)Cn1c(/C=C/c2ccco2)nc2ccccc21	0.5	6	5	-1	0%
CCC(=O)Nc1nnc(SCC(=O)NCc2ccc3c(c2)OCO3)s1	0.1	-7	x	x	x
Cc1ccc(SCC(=O)NCCc2ccccc2)cc1	1.4	2	x	x	x
COc1ccccc1N(CC(=O)NCCc1ccccc1)C(=O)CCC(=O)Nc1ccccn1	0.4	-4	x	x	x
CCN(C(=O)CSc1cc(-c2ccccc2)c2ccc(OC)cc2n1)C1CCS(=O)(=O)C1 (stereo unspecified)	7.0	18	-18	-42	8%
CC(C)C(=O)NC(Oc1ccccc1Cl)C(Cl)(Cl)Cl (stereo unspecified)	-0.6	6	0	x	0%
O=C(CSc1nccn1-c1ccccc1)Nc1ccc2c(c1)OCO2	-4.0	-6	-12	-12	-2%
Cc1ccccc1C(=O)Nc1nc(SCc2ccc(Cl)cc2)n[nH]1	-2.5	15	x	x	x
COc1ccc(/C=C/c2c([N+](=O)[O-])c(=O)n(C)c(=O)n2C)cc1O	-15	-11	-1	-19	0%
COCC(=O)Nc1nnc(SCC(=O)N2C(C)CCCC2C)s1 (stereo unspecified)	-3.7	-10	x	x	x
O=Cc1c(C(=O)O)n(CC(=O)O)c2ccccc12	-3.7	-4	-10	-10	1%

Compounds shown so far with a furan ring, fused or not (2):
SMILES	RecA intein inh	Mtb bLac sens	Arbovirus inh	YopH inh	Mtb H37Rv	others
CCN1CCN(c2ccc(S(=O)(=O)N3CCCCC3)cc2NC(=O)c2ccc([N+](=O)[O-])o2)CC1	-5.1	99	x	x	x
CC(C)Cn1c(/C=C/c2ccco2)nc2ccccc21	0.5	6	5	-1	0%

Other results follow.
SMILES	RecA intein inh	Mtb bLac sens	Arbovirus inh	YopH inh	Mtb H37Rv	others
COc1ccccc1C(=O)Nc1cccc(S(=O)(=O)N2CCCC2)c1	0.2	1	x	x	5%
CCCCCOC(=O)Nc1nnc(CCC)s1	-2.6	-6	9	-59	-7%
O=C(NC1CC1)[C@@H]1CSC2c3ccccc3C(=O)N21 (stereo partly specified)	-2.1	-2	x	x	x
O=C(Nc1cccnc1Oc1ncnc2cc(Cl)ccc12)c1ccc(F)cc1	0.7	-3	x	x	-8%
COc1ccc(Cc2cc(-c3ccc(F)cc3)n[nH]c2=O)cc1	2.6	1	x	x	1%
CC(C)NS(=O)(=O)c1ccc(N2C(=O)c3ccccc3C2=O)cc1	-2.8	x	13	-20	2%
CCOc1ccc(NC(C)=O)cc1[N+](=O)[O-]	-3.5	1	-2	x	-3%
COc1cccc2c1N1C(=O)c3c(C(=O)O)cccc3C1CC2(C)C (stereo unspecified)	0.9	x	15	-44	-1%	Arbovirus inh repeat=0
Cc1cccc2nc(-c3cccnc3)c(NCCC(C)C)n12	4.1	-10	-14	x	1%
CC1=NN(c2ccccc2)C(=O)C1(C)C	-0.4	-11	7	-2	-5%
CCOC(=O)C(C)Sc1nnc(Cn2c(=O)sc3ccccc32)n1-c1ccccc1 (stereo unspecified)	1.5	-7	16	-36	x	Arbovirus inh repeat=2
Cc1ccc2c(C(=O)CNc3nncs3)c(C)[nH]c2c1	-4.0	-2	x	x	0%
CCCN(Cc1nc(-c2ccc(Cl)cc2)no1)CC1CCCO1 (stereo unspecified)	-1.0	1	6	x	-1%
O=C(/C=C/c1cccs1)NC(=S)NNC(=O)c1ccccc1O	9.7	6	-26	x	-5%
C[C@H](NC(=O)COc1ccc(Cl)cc1)C(=O)N1CCC2(CC1)NCCc1[nH]cnc12	-2.5	2	x	x	x
